High-throughput results (PubChem BioAssay)
E coli growth – E. coli growth inhibition, primary screen, OD600; 330,000 tested, 0.21% active; Escherichia coli growth, 23 h; active compounds read low; OD600 absorbance (test concentration not listed);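 active = OD600 absorbance below the run mean of sample wells minus 3.6 SD, in any replicate, cut at about 0.56 in these data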;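 note: stock transfer was 300 nL into about 60 µL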
rRNA inh HTS – reduced GFP signal of wild-type E. coli, primary screen, bacterial rRNA inhibitor project, GFP/RFP fluorescence, OD600, single point | GFP signal change (wild-type ribosome), % (concentration not given with the values) | E. coli WT GFP vs humanized-ribosome RFP mutants, 24 h; active compounds read low; DMSO median 0, no signal -100 | 350,000 tested, 1.6% active | AID 720706, 2013;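 active = significant combined selectivity score with lowered wild-type GFP, culture density cut under 30%, mutant RFP and density less affected; inactive = any of these conditions unmet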; note: one replicate is shown; some compounds called inactive have numbers as strong as hits
AF4-AF9 inh – inhibitors of AF4 peptide binding to AF9, primary screen, biochemical, AlphaScreen, biotin-AF4 peptide, FLAG-AF9, single point | AID 651704, 2012 | inhibition, % at 10 µM | 350,000 tested, 0.47% active;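 active = every replicate reaching a set inhibition limit, whatever the replicate mean, cut at about 25% in these data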;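 note: 0% = plate neutral control median and 100% = total signal loss; the record names both 10 and 1 µM as test concentration; the first replicate is given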
FGF22 binding – binders of human FGF22 protein, primary screen, FGF22 synaptogenesis inhibitor project, biophysical, thermal shift, single point | 340,000 tested, 1.5% active | calls only at 9.99 µM | Fibroblast growth factor 22 (Homo sapiens), Q9HCT0 | recombinant FGF22 thermal shift, SYPRO orange fluorescence; percent of sucrose octasulfate shift, DMSO zero;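 active = melting point raised past a set limit in the mean and every replicate; three in four hits are not shown here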
Target sequence (Q9HCT0 whole entry, looked up): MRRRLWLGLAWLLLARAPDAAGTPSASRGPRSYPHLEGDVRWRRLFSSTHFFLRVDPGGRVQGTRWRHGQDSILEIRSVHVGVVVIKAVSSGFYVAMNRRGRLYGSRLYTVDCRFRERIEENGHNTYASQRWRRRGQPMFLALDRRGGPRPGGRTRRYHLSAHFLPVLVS
Vif A3G – inhibitors of Vif binding to APOBEC3G peptide, primary screen, biochemical, TR-FRET, GST-Vif 1-94, biotin-A3G peptide, dose response retest (AID 1117319) | Virion infectivity factor (Human immunodeficiency virus type 1 group M subtype B (isolate … | TR-FRET GST-Vif / biotin-A3G peptide binding; higher % means a stronger effect; test concentration not given here; strong numbers were not always called active | inhibition, %, or IC50 in µM where a hit was titrated | 260,000 tested, 0.57% active;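 active = above the screen mean plus three standard deviations and confirmed in dose response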;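 note: Vif residues 1-94 fused to GST binding biotinylated APOBEC3G peptide 110-148; 0% = full assay without inhibitor and 100% = GST in place of GST-Vif; retest series ran down from 100 µM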
HNF4A DNA FP – change in binding of human HNF4A to DNA, primary screen, biochemical, fluorescence polarization, FITC-DNA | Hepatocyte nuclear factor 4-alpha (Homo sapiens), P41235 | 1 h | activity change, % at 10 µM | 360,000 tested, 0.3% active; in the data active = activity change above about 30%, passing the limit was not always enough;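 note: controls were the assay level and a saturating level of protein; the project sought stronger binding though the title names inhibitors; some compounds called inactive have numbers as strong as hits; positive values seem to mean higher polarization but the record does not say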
Target sequence (P41235 whole entry, looked up): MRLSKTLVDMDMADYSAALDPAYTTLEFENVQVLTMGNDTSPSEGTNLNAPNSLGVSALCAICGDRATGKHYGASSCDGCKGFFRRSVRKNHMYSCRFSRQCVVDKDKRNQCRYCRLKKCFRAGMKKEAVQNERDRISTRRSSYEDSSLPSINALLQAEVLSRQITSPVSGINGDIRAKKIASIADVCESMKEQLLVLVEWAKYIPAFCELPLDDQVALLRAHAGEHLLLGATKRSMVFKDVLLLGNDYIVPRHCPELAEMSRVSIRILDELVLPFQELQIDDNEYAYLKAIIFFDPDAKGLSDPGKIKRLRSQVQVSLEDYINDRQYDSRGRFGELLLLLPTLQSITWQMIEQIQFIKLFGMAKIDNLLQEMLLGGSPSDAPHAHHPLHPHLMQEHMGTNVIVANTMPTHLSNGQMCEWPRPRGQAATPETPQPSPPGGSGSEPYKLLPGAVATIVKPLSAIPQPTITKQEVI
ALR inh – inhibitors of human ALR sulfhydryl oxidase, primary screen, biochemical, H2O2 detection, HRP-luminol luminescence, single point; purified ALR, DTT oxidation; inhibition, % (concentration not given with the values); 290,000 tested, 3.8% active; AID 485317, 2010;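 active = mean and each replicate at 75% or more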;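 note: stock transfer was 7.5 nL into about 7.5 µL; 0% = neutral wells and 100% = wells with inactivated enzyme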
Target sequence (P55789 whole entry, looked up): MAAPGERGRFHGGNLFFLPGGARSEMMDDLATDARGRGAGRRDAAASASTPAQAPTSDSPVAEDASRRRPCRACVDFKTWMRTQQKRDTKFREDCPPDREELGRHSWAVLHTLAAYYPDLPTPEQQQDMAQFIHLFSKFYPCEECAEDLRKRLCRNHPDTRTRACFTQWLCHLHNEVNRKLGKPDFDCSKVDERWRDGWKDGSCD
rRNA inh HTS OD600 – second read-out of rRNA inh HTS, no call of its own (marks repeat the call); OD600 change, %; measured here: OD600 growth;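 optical density of the mix in the first replicate; 0 = DMSO median and -100 = no signal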
rRNA inh HTS RFP – also measured in rRNA inh HTS; calls as there; RFP signal change, %; measured here: RFP humanized mutant strains;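 first replicate; 0 = DMSO median and -100 = no signal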
An asterisk follows results filed as active; i = inactive; . = no result given; & = joins results of further samples.

SMILES	E coli growth	rRNA inh HTS	rRNA inh HTS OD600	rRNA inh HTS RFP	AF4-AF9 inh	FGF22 binding	Vif A3G	HNF4A DNA FP	ALR inh
Cc1cccc(NC(=O)c2ccc(C3SCC(=O)N3CCc3ccccc3)cc2)c1 (configuration not stated)	0.66	-6	-10	-4.5	-6.6	i	1%	-1.4	-2
Cc1cc(N2CCOCC2)nc(NCc2ccccc2)n1	0.7	1	8	4.0	3.6	i	0%	1.0	0
O=C(NCc1ccc(F)cc1)c1cc(C2CCCN(C(=O)c3ccc4ccccc4c3)C2)on1 (configuration not stated)	.	1	-8	-1.8	1.1	i	.	1.8	.
O=C(O)CCSc1ccc([N+](=O)[O-])cc1[N+](=O)[O-]	.	-1	5	1.3	-0.5	i	10%	-3.8	-39
O=C(CCn1c(=O)[nH]c2ccccc2c1=O)NCCSCc1ccccc1	0.72	19	13	3.2	-17	i	1%	-0.7	1
Cc1cccc(-c2nnc(SCC(=O)c3ccc(O)cc3O)n2C)c1	0.72	7	8	0.6	0.5	i	17%	-2.7	-15
O=S(=O)(c1ccc(N2CCN(Cc3ccccc3)CC2)nc1)N1CCCC1	0.68	0	-7	-0.5	3.3	i	.	2.5	.
COc1cccc(CN2[C@@H]3CN(C(=O)CC(F)(F)F)c4ccccc4[C@@H]3[C@@H]2CO)c1	.	-8	-9	1.2	0.7	i	.	.	.
COc1cccc(CNC(=O)C[C@H]2C=C[C@H](NC(=O)C3CCC3)[C@H](CO)O2)c1	.	2	-4	-0.5	-0.9	i	.	.	.
Cc1ccc(S(=O)(=O)Nc2ccc3c(c2)CC(=O)N([C@H](C)CO)C[C@@H](C)[C@@H](CN(C)Cc2ccc(Cl)c(Cl)c2)O3)cc1	.	0	0	6.2	-0.6	i	.	.	.
O=C(C1CC1)N1C[C@H]2[C@@H](c3ccccc31)[C@H](CO)N2C(=O)Cc1ccccn1	.	4	4	1.0	0.5	i	.	.	.
O=C(N/C(=C/c1ccco1)C(=O)N1CCCCCC1)c1ccccc1	0.64	-2	3	-0.8	-13	i	.	0.3	25
COc1ccc(Cn2cc(CN3CC(N4CCN(C)CC4)CS3(=O)=O)nn2)cc1 (configuration not stated)	.	-5	24	18	-2.9	i	.	-2.1	.
COc1cccc(OCc2cc(C(=O)N3CCNC(=O)C3Cc3ccccc3)no2)c1 (configuration not stated)	0.66	-4	-13	4.9	1.6	i	-6%	1.7	-8
Cc1ccc2cc(NC(=O)c3ccccc3C)ccc2n1	0.68	-5	-9	-2.7	-0.1	i	0%	-0.3	.
N#C[C@@H]1[C@@H](c2ccc(-c3ccccc3F)cc2)[C@@H](CO)N1C(=O)c1ccccn1	.	8	-12	6.5	-0.2	i	.	.	.
O=C(N/N=C/c1ccncc1)c1ccccc1OCc1ccc(Br)cc1	.	-27	-36	-3.0	4.5	.	.	-0.4	-3
COCc1ccc(C(=O)N2CCCC(Nc3ccc(F)c(F)c3)C2)s1 (configuration not stated)	0.73	-8	-4	-3.0	2.9	i	5%	-4.7	63
O=C(c1ccc2ccccc2c1)N1CCN(c2ccccc2)CC1	0.71	-32	-37	-8.7	.	.	1%	-3.6	23
COc1ccccc1NC(=O)NC1(C(=O)NCC2CCCO2)CCCCC1 (configuration not stated)	0.67	3	11	-1.0	-1.8	i	.	-0.5	-1
CCCN(C)C1CN(Cc2cn(Cc3ccc(C(F)(F)F)cc3)nn2)S(=O)(=O)C1 (configuration not stated)	.	12	2	2.8	-3.0	i	.	-3.0	.
CCOC(=O)c1ccc(NC(=O)[C@@H](NC(N)=O)C(C)C)cc1	0.7	8	7	0.7	-1.0	i	-6%	-1.5	-13
COC(=O)c1cc(OC)c(OC)cc1NC(=O)c1cc(-c2ccccc2)nc2ccccc12	0.74	.	.	.	.	.	1%&10%	2.7	-2
C[C@H]1COC(=O)[C@H](CC(=O)OC(C)(C)C)C/C=C\C[C@@H](CC(=O)NCCO)C(=O)N1	0.79	1	-5	25	8.6	i	.	4.3	-2
C[C@@H]1CN([C@H](C)CO)C(=O)c2cc(NC(=O)CCCN(C)C)ccc2O[C@@H]1CN(C)Cc1ccncc1	.	3	3	-0.9	-6.6	i	.	.	.
Cc1c(N=Nc2ccc(N(C)C)cc2)c(=O)n(-c2ccccc2)n1C	0.69	-6	-8	-1.7	1.6	i	23%	36*	.
Cc1ccc(NC(=O)c2cccc(NC(=O)CC3SC(N4CCCCC4)=NC3=O)c2)nc1 (configuration not stated)	0.69	5	5	0.6	0.0	i	-3%	-4.6	-3
O=C(CSc1nccc(=O)[nH]1)NCc1ccc(Cl)cc1	0.67	12	11	4.1	-1.0	i	-10%	-3.5	1
COc1ccc(Cn2c(SCc3ccccc3C)nc3cc(OC)c(OC)cc3c2=N)cc1	0.63	.	.	.	.	.	-6%	4.5	-14
Cc1occc1C(=O)NNC(=O)c1nn(C)c(=O)c2ccccc12	0.69	9	7	3.6	-0.7	.	7%	-1.1	0

A run of entries from the list above, for reference:
SMILES	E coli growth	rRNA inh HTS	rRNA inh HTS OD600	rRNA inh HTS RFP	AF4-AF9 inh	FGF22 binding	Vif A3G	HNF4A DNA FP	ALR inh
O=C(CSc1nccc(=O)[nH]1)NCc1ccc(Cl)cc1	0.67	12	11	4.1	-1.0	i	-10%	-3.5	1
COc1ccc(Cn2c(SCc3ccccc3C)nc3cc(OC)c(OC)cc3c2=N)cc1	0.63	.	.	.	.	.	-6%	4.5	-14
Cc1occc1C(=O)NNC(=O)c1nn(C)c(=O)c2ccccc12	0.69	9	7	3.6	-0.7	.	7%	-1.1	0

(list continues)
SMILES	E coli growth	rRNA inh HTS	rRNA inh HTS OD600	rRNA inh HTS RFP	AF4-AF9 inh	FGF22 binding	Vif A3G	HNF4A DNA FP	ALR inh
COc1ccc(NC(=O)Nc2ccc3c(c2)C(=O)N([C@H](C)CO)C[C@H](C)[C@H](CN(C)C(=O)Nc2ccc4c(c2)OCO4)OCCCC[C@@H](C)O3)cc1	.	5	7	-1.3	1.7	i	.	.	.
CN(C)CCCN(C(=O)c1ccc(S(=O)(=O)N(C)C2CCCCC2)cc1)c1nc2ccc(Br)cc2s1	0.68	-48	-83	-18	0.3	i	.	3.5	-11
COc1cccc(NC(=O)Cn2c3ccc(F)cc3c3nc4n(c(=O)c32)CCS4)c1	0.68	2	6	-2.8	-0.4	i	-4%	0.2	-3
CCCn1c(N)c(N(CCOC)C(=O)CCC2CCCCC2)c(=O)[nH]c1=O	0.7	4	2	-1.5	-1.8	i	.	-0.7	-16
COc1cccc(N(CC(=O)NCCSCc2ccco2)S(=O)(=O)c2ccccc2)c1	0.63	-4	-13	4.3	2.2	i	-3%	-2.3	38
COC(=O)c1nonc1NCn1nnc2ccccc21	0.71	.	.	.	.	.	14%	2.0	-3
CCOc1ccc2[nH]c(=O)c(CN(Cc3ccccc3OC)C(=O)c3ccccc3)cc2c1	0.72	.	.	.	.	.	-2%	0.6	-9
CCCCS(=O)(=O)Nc1ccc2ncn(C)c(=O)c2c1	0.71	8	2	-7.9	1.9	.	8%	-2.5	-3
CN(C(=O)c1ccccc1)c1ccc(OCC(=O)NC2CCS(=O)(=O)C2)cc1 (configuration not stated)	0.7	.	.	.	.	.	24%	-4.2	.
CCN(CC)C(=O)CSc1nnc(-c2ccc(F)cc2)n1N	0.76	.	.	.	.	.	6%	0.0	2
CCS(=O)(=O)N1CCC2(CC1)CN(Cc1ccccc1OC)[C@@H](CO)c1c2c2ccc(OC)cc2n1C	.	5	-21	-4.7	-3.1	i	.	.	.
COc1ccc(C2=NS(=O)(=O)N(C)C(C(=O)NC3CCCCC3)=C2)cc1	0.77	-7	-2	0.5	-5.7	i	.	-5.5	.
Nc1c(C(=O)Nc2ccccc2)sc2ncc([N+](=O)[O-])cc12	0.7	23	19	1.4	0.9	i	-1%	6.0	5
C[C@@H]1CCCCO[C@@H](CN(C)C(=O)Nc2ccc(F)cc2)[C@@H](C)CN([C@H](C)CO)C(=O)c2cc(N(C)C)ccc2O1	.	4	10	2.5	1.2	i	.	.	.
CC(OC(=O)c1ccc(C(C)(C)C)cc1)C(=O)NC1CCCCC1C (configuration not stated)	0.66	12	9	-3.0	3.3	i	.	-0.6	-4
COc1ccc(S(=O)(=O)Nc2ccc3c(c2)C(=O)N([C@@H](C)CO)C[C@H](C)[C@@H](CN(C)S(=O)(=O)c2ccccc2)O3)cc1	.	3	6	0.2	1.7	i	.	.	.
COC(=O)c1ccc2nc(-c3ccc(OC)c(OC)c3)c(CC3CCCCC3)n2c1	.	-8	-7	4.7	0.2	i	.	2.6	.
CCOC(=O)[C@]12CCC=C1N(Cc1ccc3c(c1)OCO3)C(=O)[C@H](CC(=O)NCCCCc1ccccc1)C2	.	.	.	.	1.7	i	.	2.9	.
COc1ccc(-n2nnnc2SCC(=O)NC2CCCC2)cc1OC	0.67	0	3	0.6	0.3	i	.	-0.7	-19
COc1ccc(C(=O)N2CCCC(Nc3ccc(F)cc3)C2)c(OC)c1 (configuration not stated)	0.68	7	12	-0.3	-4.4	i	3%	-2.2	98*
CCCNC(=O)Nc1ccc2c(c1)C(=O)N(C)C[C@H](OC)[C@@H](C)CN(Cc1ccc(-c3ccccn3)cc1)[C@H](C)CO2	.	-4	-12	3.2	2.9	i	.	.	.
CSc1nnc(Cn2c(=O)sc3ccccc32)n1-c1ccccc1C	0.76	2	5	1.8	-2.5	i	23%	-2.0	.
COCCNc1nc(NCCOC)c2sc(-c3ccccc3)cc2n1	.	-29	-64	-9.6	5.7	i	.	-0.7	.
CN(C1CCCC1)C1CCN(C(=O)CNC(=O)/C=C/c2ccc(F)cc2)CC1	0.7	0	5	-9.0	1.8	i	.	0.6	0
O=C(Nc1ccccc1OC(F)F)c1cc2c(s1)CCC2	0.65	-35	-29	-13	-8.9	i	17%	-2.8	-3
CCOC(=O)C1CCN(C(=O)COC(=O)Cc2ccc(Cl)cc2)CC1	0.66	-2	3	7.8	-1.9	i	-2%	-2.0	.
Cc1ccc(CNC(=O)c2nnn(-c3cccc(C)c3)c2N)cc1	0.67	.	.	.	.	.	7%	-0.2	-3
Cc1cccc(CN2C(=O)[C@H]3Cc4c([nH]c5ccccc45)C(C)(C)N3C2=O)c1	.	-3	-31	-1.2	9.8	i	.	-0.7	-17
C=CCn1c(SCC(=O)NCc2ccccc2)nnc1-c1cc(Br)ccc1O	0.7	.	.	.	.	.	2%	2.6	29
COc1ccccc1NS(=O)(=O)c1ccc(C)c(C(=O)N2CCN(c3ccc(O)cc3)CC2)c1	.	.	.	.	4.5	i	2%	8.8	99*
C[C@@H]1CN([C@@H](C)CO)C(=O)c2cc(NC(=O)CCN3CCOCC3)ccc2O[C@H]1CN(C)Cc1ccccc1	.	1	4	-2.1	-4.6	i	.	.	.
CC12C=CC3(O1)C(C(=O)N(c1ccccc1)C3C(=O)NC1CCCC1)C2C(N)=O (configuration not stated)	0.67	.	.	.	.	.	-3%	0.8	-6

This is a subset; the hit share may differ from the screen's.
